Screens as filed in PubChem.
Env fusion inh: inhibitors of HIV-1 Env-driven cell-cell fusion, primary screen, HeLa-JRFL effector, CEM21 target cells, luciferase; inhibition, % at 12.3 µM; actives 1.1% (n = 360,000);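 active = mean replicate inhibition score of at least 50 and every replicate individually at or above 50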;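 note: 0% = plate neutral controls and 100% = maraviroc near 300 nM; one replicate is shown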
MT1-MMP act inh: blockers of MT1-MMP proenzyme processing, primary screen, HT1080 RFP-PRO-GFP cells, GFP/RFP fluorescence; GFP/RFP ratio fluorescence, overnight; percent of plate control window, DMSO zero; GFP/RFP ratio change, % at 20 µM; actives 0.061% (n = 360,000);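 active = GFP/RFP ratio change of at least 30% with cell ATP level not reduced by more than half and red fluorescence within 50% of control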; note: strong numbers were not always called active
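Test system: HT1080 cells expressing an RFP-PRO-GFP fluorescent reporter construct / Compound dosing: single-point 20 µM compound, 1% DMSO / Schedule: cells overnight before dosing, compound overnight, 37 °C, 5% CO2 / Evaluation: GFP/RFP fluorescence ratio / Control set: DMSO and RFP-L50D-GFP cell wells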
eIF4H inh: human eIF4H binding inhibitors, primary screen, translation initiation inhibitor project, biochemical, uHTS, fluorescence polarization; Eukaryotic translation initiation factor 4H (Homo sapiens), Q15056; eIF4H fluorescence polarization binding assay; inhibition, % at 35 µM; actives 0.94% (n = 290,000); AID 2012, 2009;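 active = 50% or more with normal probe brightness, or confirmed in later tests; about a fifth of its hits are not listed in these tables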;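 note: calls also rest on retests at 20 µM and on dose response follow-up; 0% = protein and probe with vehicle and 100% = probe without protein; strong numbers were not always called active; many hits fall short of the cut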
Rce1 inh: yeast Rce1p protease inhibitors, primary screen, biochemical, fluorescence, cell-free homogeneous | CAAX prenyl protease 2 (Saccharomyces cerevisiae (strain ATCC 204508 / S288c)), Q03530 | yeast membranes, quenched prenylated peptide cleavage fluorescence | calls only | actives 0.27% (n = 290,000);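 active = fall in fluorescence gain of 50% or more versus controls, with final raw signal at or below 3038400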;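 note: plate controls were neutral control wells for no effect and wells lacking membranes for full effect; tested at 10 µM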
Target sequence (Q03530 whole entry, looked up): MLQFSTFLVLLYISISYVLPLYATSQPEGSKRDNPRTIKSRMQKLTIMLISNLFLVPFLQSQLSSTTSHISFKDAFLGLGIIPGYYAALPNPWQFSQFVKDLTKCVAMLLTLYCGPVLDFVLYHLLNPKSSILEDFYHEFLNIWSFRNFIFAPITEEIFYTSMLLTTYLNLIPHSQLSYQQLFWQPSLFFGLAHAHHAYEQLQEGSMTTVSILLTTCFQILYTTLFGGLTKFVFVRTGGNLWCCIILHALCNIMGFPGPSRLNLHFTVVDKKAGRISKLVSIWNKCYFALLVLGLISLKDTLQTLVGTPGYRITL
Yeast UUG start: modulators of yeast start codon fidelity, primary screen, whole organism, S. cerevisiae, single point, plate reader; actives 0.13% (n = 350,000); activity score, % at 18.7 µM; S. cerevisiae UUG-firefly luciferase reporter, luminescence/redox ratio;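 active = replicate mean at a twofold rise or more, about +100% in these data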;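 note: firefly luciferase made from a UUG start codon reports start codon fidelity; reporter light over untreated wells divided by growth signal over untreated wells; some hits fall short of that in this replicate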
CSC inhib: cancer stem cell viability inhibitors, primary screen, luminescence. cancer stem cell-like cells viability. inhibition, % at 7.5 µM. actives 1.1% (n = 300,000). AID 2717, 2010;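 active = mean at 75% or more and at least half the replicates too; tested in HMLE shEcad cells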;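 note: 0% = median of negative and 100% = median of positive control wells; the first replicate is given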
PABP polyA inh: PABP poly(A) RNA binding inhibitors, primary screen, biochemical, fluorescence polarization, uHTS; inhibition, % at 35 µM; AID 2014, 2009; actives 1% (n = 290,000); Polyadenylate-binding protein 1 (Homo sapiens), P11940;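 active = 50% or more with normal probe brightness, or confirmed in later tests; about a fifth of its hits are not listed in these tables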;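 note: calls also rest on retests at 20 µM and on dose response follow-up; controls were probe without protein and protein plus probe with vehicle; some compounds called inactive have numbers as strong as hits; many hits fall short of the cut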
MT1-MMP act inh RFP: second read-out of MT1-MMP act inh, no call of its own (marks repeat the call); RFP signal change, %; measured here: RFP expression control read;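 0 = vehicle wells; hits needed this value within 50% of zero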
* = called active by the depositor; i = inactive; nt = not tested or not shown.

The first three compounds (preview)
canonical_smiles	MT1-MMP act inh RFP	Yeast UUG start	PABP polyA inh	MT1-MMP act inh	CSC inhib	Rce1 inh	eIF4H inh	Env fusion inh
CCOc1ccc(Br)cc1/C(C)=N\NC1=NCCN1	-13	nt	7	0	39	i	-4	nt
O=C(Nc1ccc(Oc2ccccc2)nc1)C1CCCCN1Cc1ccco1 (stereo not given)	-6	3	11	-1	39	i	-5	20
CN(C)S(=O)(=O)c1ccc(N2CCCC2)c(C(=O)NNC(=O)c2ccccc2)c1	0	-10	nt	-2	-12	nt	nt	8

This part in full, from the start:
canonical_smiles	MT1-MMP act inh RFP	Yeast UUG start	PABP polyA inh	MT1-MMP act inh	CSC inhib	Rce1 inh	eIF4H inh	Env fusion inh
CCOc1ccc(Br)cc1/C(C)=N\NC1=NCCN1	-13	nt	7	0	39	i	-4	nt
O=C(Nc1ccc(Oc2ccccc2)nc1)C1CCCCN1Cc1ccco1 (stereo not given)	-6	3	11	-1	39	i	-5	20
CN(C)S(=O)(=O)c1ccc(N2CCCC2)c(C(=O)NNC(=O)c2ccccc2)c1	0	-10	nt	-2	-12	nt	nt	8
Cc1ccc(S(=O)(=O)N[C@@H](Cc2ccccc2)C(=O)CCl)cc1	-1	-10	23	2	55	i	2	nt
CCc1noc(C)c1C(=O)Nc1nc(-c2ccc(Cl)cc2Cl)c(C)s1	-21	-6	6	-13	-13	i	-8	-47
Fc1ccc(COc2ccc(-c3nnco3)cc2)cc1	-3	-23	-3	-1	27	i	-10	-22
CCc1n[nH]c(=S)n1/N=C/c1ccc2c(c1)OCO2	nt	-22	-9	nt	-11	i	-12	-34
C/C(=C/C(=O)O)C(=O)Nc1cccc(C(F)(F)F)c1	7	nt	-1	3	-8	i	-4	8
COc1ccc(C(=O)NC(=S)Nc2cccc3ncccc23)cc1[N+](=O)[O-]	-4	-34	4	2	18	i	-4	5
COc1cccc(NC(=O)CN(C)C(=O)c2cccc(S(=O)(=O)N3CCN(c4ccccc4)CC3)c2)c1	nt	3	9	nt	22	i	17	0
CCCCCN(C(=O)COC(=O)c1ccc(Br)o1)c1c(N)n(CCCC)c(=O)[nH]c1=O	-1	7	0	4	-14	i	13	nt
COc1cc2c(cc1OC)[C@@H](NC(=O)CCC1CCCCC1)[C@H](O)C2	3	3	nt	1	nt	nt	nt	15
CCN(C(=O)COC(=O)c1ccc(OC)c(S(=O)(=O)N(C)Cc2ccccc2)c1)C1CCS(=O)(=O)C1 (stereo not given)	-3	4	nt	2	-5	i	nt	17
CCCn1c(SCC(=O)Nc2ccc(OC)cc2[N+](=O)[O-])n[nH]c1=O	-1	7	-17	6	3	nt	4	-11
Cc1ccc2nc(N3CC(=O)Nc4ccccc43)nc(-c3ccccc3)c2c1	-4	nt	12	-16	9	nt	-6	4
CC1=C(C(=O)Nc2ccccc2)C(c2ccco2)n2ncnc2N1 (stereo not given)	3	-6	-6	-3	-3	i	-5	nt
CC(C)c1ccc(NC(=O)Cn2cccc2C2=NC(c3ccccc3)CO2)cc1 (stereo not given)	-14	-13	7	-3	4	i	-1	0
CCCNC(=O)C1(C)CCN(Cc2cccc(OC(=O)c3ccccc3)c2)C1 (stereo not given)	12	0	nt	4	nt	nt	nt	10
O=C(N[C@@H](Cc1ccccc1)C(=O)N1CCN(S(=O)(=O)c2ccccc2F)CC1)c1ccco1	2	6	nt	-6	-11	nt	nt	4
COc1ccc(N/C(C)=C/C(=S)Nc2ccccc2)cc1	0	nt	6	-1	10	i	-2	-158
Cc1csc(SCC(=O)Nc2cc(C(N)=O)cc(C(N)=O)c2)n1	4	-14	nt	-1	-8	nt	nt	-17
Cc1ccc(/C=C/C(=O)NCc2ccc(S(N)(=O)=O)cc2)o1	8	nt	7	-6	nt	i	15	28
COC(=O)CSc1nc(-c2ccccc2)c2c(c1C#N)CCCC2	2	-37	2	4	52	i	-6	nt
CC1(c2ccc3c(c2)OCO3)NC(=O)N(CC(=O)Nc2ccccc2[N+](=O)[O-])C1=O (stereo not given)	-2	-9	nt	5	nt	nt	nt	11
CCOc1cc(/C=C/c2nc3ccccc3s2)ccc1OCC(=O)N1CCOCC1	-9	-25	8	-4	-1	i	-11	4
CCc1cc(=O)oc2c(C)c(OC(C)C(=O)NCCCN3CCOCC3)ccc12 (stereo not given)	0	-20	3	0	13	i	-3	7
COc1ccc(CNc2ccc(-c3ccccc3OC)nn2)cc1	-3	-10	-1	0	7	nt	10	-4
CC(NC(=O)CCCn1cc([N+](=O)[O-])cn1)c1ccccc1 (stereo not given)	-4	-18	-6	1	-9	i	3	-8
O=S(=O)(c1cccc(Cn2nnc(-c3ccc(F)cc3)n2)c1)N1CCOCC1	-20	-14	2	2	-1	i	-8	nt
CC(C)CC(OC(=O)c1nsc(Cl)c1Cl)C(=O)NC1CCCC1 (stereo not given)	-1	-9	-4	2	8	nt	-7	3

canonical_smiles	MT1-MMP act inh RFP	Yeast UUG start	PABP polyA inh	MT1-MMP act inh	CSC inhib	Rce1 inh	eIF4H inh	Env fusion inh
Cn1c(=O)c2c(nc(CN3CCOCC3)n2CCc2ccccc2)n(C)c1=O	1	0	3	-3	13	i	-3	-83
O=C(O)C1CCCCC1C(=O)Nc1ccc(S(=O)(=O)N2CCCC2)cc1 (stereo not given)	-2	-7	-2	-3	nt	i	-2	10
CCS(=O)(=O)CCSC1OC(COC(C)=O)C(OC(C)=O)C(OC(C)=O)C1OC(C)=O (stereo not given)	0	nt	0	-1	3	i	1	11
Cc1cc2nc3n(c2cc1C)CC1CC(C(=O)NCc2ccccc2)N(C)C31 (stereo not given)	-1	-6	nt	9	0	i	nt	8
CCOC(=O)C1(C)NC(c2ccc(OC)c(OC)c2)C2C(=O)N(CC)C(=O)C21 (stereo not given)	2	-8	8	-1	15	i	-10	-17
Nc1c(Cl)ncnc1N/N=C/c1ccc(O)cc1	1	nt	-2	3	5	i	9	-21
COc1ccc(C2=NN(C(=O)c3ccco3)C(c3ccco3)C2)cc1OC (stereo not given)	0	15	1	-2	24	i	2	-5
Cn1c2ccccc2c2nnc(SCC(=O)NC3CC3)nc21	2	nt	-3	-2	-12	i	9	7
CC(C)(C)OC(=O)C[C@@H]1C/C=C\C[C@@H](CC(=O)N[C@@H](CO)Cc2ccccc2)C(=O)NCCOC1=O	1	-8	nt	3	-9	nt	nt	3
CCN1CCN(C(c2cccs2)C(C)NC(=O)c2cccnc2)CC1 (stereo not given)	2	-12	-2	0	2	i	-8	nt
COc1cc(NC(=S)NC(=O)c2ccc(C)cc2C)ccc1NC(=O)c1cccs1	-2	-6	3	1	-8	i	-2	nt
Cc1cc(Br)ccc1S(=O)(=O)NCc1ccccc1	0	5	12	4	7	nt	2	3
Cn1nc(C(F)(F)F)c(CNC(=O)C(C)(C)CCl)c1N1CCOCC1	1	-19	7	-7	-6	i	-6	-2
CCCCCCN=C1CC(C)(C)CC(=O)/C1=C(/O)CCC	-9	nt	-2	-4	-16	i	-10	13
COc1ccc(C(=O)NCC(=O)N/N=C/c2cccnc2)cc1OC	1	-11	5	1	-3	i	-10	3
COc1ccc(N2CCN(C(CNC(=O)C(=O)NCC(OC)OC)c3ccco3)CC2)cc1 (stereo not given)	-1	-6	-1	4	-10	i	-3	4
CCCc1cc(=O)[nH]c(SCC(=O)N2CCN(S(=O)(=O)c3ccccc3)CC2)n1	0	nt	45	10	1	i	-10	7
CC(=O)Nc1c(O)c2cccc3c2n(c1=O)CCC3	2	nt	nt	0	-10	i	nt	-6
CCCCOC(C)n1cc(F)c(=O)[nH]c1=O (stereo not given)	4	nt	-4	0	-15	i	2	3
CCCN1CCN(CCCNC(=S)Nc2ccc(OC)cc2)CC1	-1	-23	8	1	-4	i	-36	10
CC(C)Oc1ccc(C(=O)Nc2c3c(nn2-c2ccccc2)CS(=O)(=O)C3)cc1	2	0	1	-3	-6	i	-4	nt
O=C(O)c1cc(N/N=C/c2cccc3ccccc23)ccc1Cl	2	16	23	-2	4	i	1	-128
CN(C)CCCNS(=O)(=O)c1ccc(-n2nnc3ccccc32)c([N+](=O)[O-])c1	-3	5	31	-3	41	i	37	10
O=Cc1c(Cl)nc2ccccn12	4	nt	4	-3	nt	i	0	-7
O=C(CN1CCOCC1)NN=Cc1ccc([N+](=O)[O-])o1	3	-40	nt	4	nt	nt	nt	-7
CCN(CC)c1ncnc2c1cnn2Cc1ccc(C)cc1	-1	-7	-3	4	4	i	-6	11
O=C1CC(c2cccc(Br)c2)c2cc3c(cc2N1)CCC3 (stereo not given)	-16	1	-3	-7	nt	i	4	nt
O=C(CNc1cc(S(=O)(=O)N2CCOCC2)ccc1N1CCCC1)N1CCc2ccccc21	1	nt	-7	0	-8	i	-5	15
CCN(C(=O)CSc1nc2c(cnn2-c2ccccc2)c(=O)[nH]1)C1CCS(=O)(=O)C1 (stereo not given)	-2	-9	5	-2	27	i	-3	10
Cc1nc(N2CCC(C)CC2)c(C#N)c(C)c1[N+](=O)[O-]	5	nt	-10	6	0	i	-1	1

canonical_smiles	MT1-MMP act inh RFP	Yeast UUG start	PABP polyA inh	MT1-MMP act inh	CSC inhib	Rce1 inh	eIF4H inh	Env fusion inh
COc1ccccc1-c1cc(C(=O)N/N=C\c2cnn(C)c2C)c2ccccc2n1	2	-19	-4	-1	-10	i	-1	3
COc1ccc(NC(=O)COc2ccc(C)nc2[N+](=O)[O-])cc1S(N)(=O)=O	3	-12	nt	9	0	nt	nt	nt
COc1ccc2[nH]c(C)c(C(=O)CN3CC(C)OC(C)C3)c2c1 (stereo not given)	-1	0	11	1	-18	i	30	nt
CC(C)(C)NC(=O)CN(C(=O)c1csnn1)c1ccccc1-c1ccccc1	2	-28	-2	4	-3	i	4	-16
COC(=O)c1ccc(COc2ccccc2[N+](=O)[O-])o1	-3	nt	-10	1	-11	nt	-14	-135
CCOc1ccc(/C=N/n2c(SC)nnc(C(C)(C)C)c2=O)cc1	-4	-7	-9	1	1	i	-8	nt
COCCn1nnnc1CN1CCC(NC(=O)c2ccc(Br)cc2)CC1	-1	-14	0	-8	nt	i	-3	nt
CC(=O)C1=C(O)C(=O)N(CC(=O)O)C1c1ccccc1Cl (stereo not given)	2	-5	17	-1	-1	i	-1	nt
Cc1cc(C)c(C(=O)N2CCCC(N3CCN(c4ccc(F)cc4)CC3)C2)o1 (stereo not given)	-5	-2	-6	5	6	i	0	-250
O=C(c1cccc(Cl)c1Cl)N1CCN(c2ccccn2)CC1	2	nt	3	3	-10	i	-1	nt
O=C(Nc1nonc1-c1ccc(Cl)cc1)c1ccccc1	1	nt	21	6	30	i	-2	-18
CS(=O)(=O)c1cccc(C(=O)Oc2ccccc2)c1	6	-7	4	-4	-17	i	-10	-37
Cc1cc(C)cc(NC(=S)NCc2cccn2C)c1	-1	nt	-6	-5	-11	i	3	nt
C=CCC1(CC=C)CCCN1C(=O)C1CCC(=O)N(CCc2ccc(OC)cc2)C1 (stereo not given)	-3	-11	5	0	-12	i	3	-39
Nc1c(Cl)cc2c(c1Br)Cc1ccccc1-2	5	-14	nt	4	nt	nt	nt	-4
COc1ccc(S(=O)(=O)N2CCOCC2)cc1NC(=O)COc1ccc(C)cc1	-1	-11	nt	-1	0	nt	nt	4
O=C(NCCC1=CCCCC1)c1c(O)nc2ccccn2c1=O	-6	3	6	7	-1	i	-2	2
